hNpr1 antagonist = human Npr1 receptor antagonism | Potency, µM (top dose mostly 46.3 µM), inactives show at the highest dose activity change, negative = inhibition, hits mostly inhibitors | HEK293 hNpr1 GloSensor cGMP, ANP-stimulated luminescence | 1.6% of 76,000 active | P16066; active = well fitted inhibition curve with a large enough effect; inconclusive = small, poorly fitted or top-dose-only effect; inactive = no such curve, though single readings can be large or run the other way;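 note: nearly all actives have a fitted effect of over 60% in size; nearly all hits also lower the signal before the agonist is added; a reference antagonist and vehicle were the controls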
Target sequence (P16066 whole entry, looked up): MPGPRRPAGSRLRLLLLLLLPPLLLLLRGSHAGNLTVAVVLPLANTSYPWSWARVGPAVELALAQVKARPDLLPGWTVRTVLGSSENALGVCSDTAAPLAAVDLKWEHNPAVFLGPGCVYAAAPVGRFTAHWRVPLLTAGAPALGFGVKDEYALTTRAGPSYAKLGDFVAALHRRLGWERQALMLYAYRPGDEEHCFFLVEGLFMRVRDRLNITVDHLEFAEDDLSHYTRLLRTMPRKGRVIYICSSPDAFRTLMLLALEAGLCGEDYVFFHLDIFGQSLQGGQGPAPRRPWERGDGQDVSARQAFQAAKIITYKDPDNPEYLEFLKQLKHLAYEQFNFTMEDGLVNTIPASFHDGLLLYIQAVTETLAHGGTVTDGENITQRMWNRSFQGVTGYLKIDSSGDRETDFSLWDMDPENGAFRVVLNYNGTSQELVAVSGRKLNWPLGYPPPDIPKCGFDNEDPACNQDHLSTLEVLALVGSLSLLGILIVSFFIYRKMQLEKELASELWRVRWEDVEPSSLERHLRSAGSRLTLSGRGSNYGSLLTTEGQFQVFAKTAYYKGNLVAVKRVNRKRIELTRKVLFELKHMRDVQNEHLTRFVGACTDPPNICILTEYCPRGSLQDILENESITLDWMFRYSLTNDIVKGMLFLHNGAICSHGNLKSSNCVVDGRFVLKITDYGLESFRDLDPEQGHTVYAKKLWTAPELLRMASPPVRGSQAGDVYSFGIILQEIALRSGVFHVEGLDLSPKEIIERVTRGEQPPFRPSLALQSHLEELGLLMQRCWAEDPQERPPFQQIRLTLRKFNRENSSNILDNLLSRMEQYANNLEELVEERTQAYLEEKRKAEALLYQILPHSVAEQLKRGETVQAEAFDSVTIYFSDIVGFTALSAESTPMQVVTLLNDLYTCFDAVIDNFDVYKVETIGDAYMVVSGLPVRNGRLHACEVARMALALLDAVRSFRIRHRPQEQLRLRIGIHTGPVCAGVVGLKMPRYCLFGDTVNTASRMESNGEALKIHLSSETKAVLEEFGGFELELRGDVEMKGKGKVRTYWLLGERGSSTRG
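HEK293 cells stably expressing human Npr1 and cGMP GloSensor pGS-40F, loaded 2 h with 2% GloSensor reagent, given compound 30 min at room temperature. Luminescence read before and 20 min after 0.1 nM hNppA.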
* marks the source's active call; other numbers are inactive results; u = inconclusive; & = joins results of further samples; [ ] = another dose, or the depositor's remark. % is set by controls: 0 for no effect and ±100 for the full control effect; potency is the fitted concentration of half-maximal effect. Only part of the results is shown, so the mix of outcomes need not match the whole.

hNpr1 antagonist	mol
-25%[70.6 µM]	O=C(c1ccccc1)N1Cc2[nH]cnc2C[C@H]1c1nc(-c2ccc(Cl)cc2)no1
-9%[70.6 µM]	CC(=O)Nc1cccc(-c2n[nH]c3c2CC(=O)N(c2ccccc2)C3)c1
-1%	COc1ccc(C(=O)N2C[C@@H](Oc3ccccc3)C[C@H]2C(=O)N2CCCC2)cc1
-10%	CCC1CN(C(=O)c2ccc3nc[nH]c3c2)CCC(=O)N1Cc1ccccc1 (stereo unspecified)
5%	CC1(C(=O)NCc2cccc(F)c2)CCCCC(=O)N1 (stereo unspecified)
-5%	O=C(c1ccncc1)N1CCCC(c2noc(COc3ccccc3)n2)C1 (stereo unspecified)
0%	COc1ccc(C(=O)NC2CCN(C(=O)N3CC4CC(C3)[C@H]3CCCC(=O)N3C4)CC2)c(OC)n1 (stereo partly specified)
-1%	COc1ccc(NC(=O)C2CCN(c3cn[nH]c(=O)c3)C2)cc1 (stereo unspecified)
5%	CCCS(=O)(=O)N1CC(N(C)Cc2cccnc2)C1
-3%[70.6 µM]	CNC(=O)c1ccc2cncn2c1

Next part; it opens with the 4 that closed the last part.
hNpr1 antagonist	mol
0%	COc1ccc(C(=O)NC2CCN(C(=O)N3CC4CC(C3)[C@H]3CCCC(=O)N3C4)CC2)c(OC)n1 (stereo partly specified)
-1%	COc1ccc(NC(=O)C2CCN(c3cn[nH]c(=O)c3)C2)cc1 (stereo unspecified)
5%	CCCS(=O)(=O)N1CC(N(C)Cc2cccnc2)C1
-3%[70.6 µM]	CNC(=O)c1ccc2cncn2c1
-2%	O=C(c1ccc(F)c(F)c1)N1CCC2(CC1)N(c1ccccc1)C(=O)CS2(=O)=O
6%	O=C1CC2(CCN(S(=O)(=O)c3ccccc3)CC2)Oc2cc(Cl)ccc21
15%[70.6 µM]	O=C(NCc1ccc2c(c1)OCO2)C1CN(c2ccccc2)C(=O)N1 (stereo unspecified)
21%	OC1CC([C@@H](Cc2ccccn2)NC2CCC3(CCNCC3)CC2)C1 (stereo partly specified)
-7%	O=C(c1cccs1)N1CCCC(Cc2noc(-c3cnccn3)n2)C1 (stereo unspecified)
11µM*	CC(C)Oc1ccc(CN2C[C@@H](CO)[C@H](c3ccncc3)C2)cc1
2%	O=C(CCn1cncn1)N1CCOC(CC(c2ccccc2)c2ccccc2)C1 (stereo unspecified)
-2%[70.6 µM]	c1ccc(-c2ccc3ncc(Nc4ccncc4)n3n2)cc1
-17%	O=C1CCC2(CNC(=O)c3ccco3)CCCC=C2N1 (stereo unspecified)
3%	Cc1cc(C[C@@H]2COC[C@@H]2NC(=O)c2cc(C)oc2-c2ccccc2)on1
4%	COC(=O)C1=C(C)NC(=O)NC1c1ccccc1OC (stereo unspecified)
-10%	CCOC(=O)c1cn(C2CN(S(=O)(=O)c3ccc(C)c(C)c3)C2)nn1
11µM*	O=C(c1ccc(-n2ccnc2)cc1)N1CCC(c2[nH]ncc2-c2ccccc2)CC1
-1%	CCCc1nc(C(=O)N2C[C@H](c3cccc(OC)c3)[C@@H](N)C2)cs1
6%	Cc1ccc(C2(O)CCN(C(=O)c3cnn4cc(CCO)cnc34)CC2)nc1
8%	CCN1Cc2nc(OC)c(CNC(=O)C(C)n3cc(C)cn3)cc2C1=O (stereo unspecified)
3%	COc1ccc(C(=O)N2CC[C@@H]3CN(S(C)(=O)=O)[C@@H]3C2)cn1
1%	CCN1C(=O)CCc2cc(NC(=O)c3cncc(Br)c3)ccc21
-3%	CC(C)NC(=O)N[C@H]1CCN(C(=O)CC(C)(C)C)[C@@H]1C(=O)N[C@H](Cc1c[nH]c2ccccc12)C(N)=O
2%	CCS(=O)(=O)N(C1CC1)C1CCOC2(CCN(C(=O)Cc3ccccc3)CC2)C1 (stereo unspecified)
u	O=C(Nc1cccnc1)[C@@H]1C[C@@H](c2ccc(F)cc2)N(CCOc2ccccc2)C1
-3%[70.6 µM]	N[C@H]1CCN2C(=O)c3cc(-c4ccccc4F)ccc3NC(=O)[C@H]12
13µM*	OC1CC(c2cc(NCCSC3CCCCC3)ncn2)C1 (stereo unspecified)
2%	CO[C@H]1C(=O)N(C2CCN(S(=O)(=O)c3ccccc3)CC2)[C@H]1c1ccncc1
-16%	COc1ccc(-c2cc(C[C@H]3CNCC[C@H]3CC(=O)NCc3ccc4c(c3)OCO4)no2)cc1
-15%	COCc1cc(=O)n(CC(=O)Nc2cccc(C(F)(F)F)c2)c(N2CCOCC2)n1
-5%	O=C1CCC2(CCCO2)CCN1Cc1cccc(C(F)(F)F)c1 (stereo unspecified)
2%	CN(Cc1ccc(-n2cccn2)cc1)Cc1nc(Cc2cccc(F)c2)no1
3%	COCC(=O)NC1CCC12CCN(C(=O)c1cccc(C#N)c1)CC2 (stereo unspecified)
6%	COCCN1C(=O)[C@H]2CN(Cc3scnc3C)C[C@H]2C1=O

Reprinted from the part before: five entries, followed by the next part.
hNpr1 antagonist	mol
-15%	COCc1cc(=O)n(CC(=O)Nc2cccc(C(F)(F)F)c2)c(N2CCOCC2)n1
-5%	O=C1CCC2(CCCO2)CCN1Cc1cccc(C(F)(F)F)c1 (stereo unspecified)
2%	CN(Cc1ccc(-n2cccn2)cc1)Cc1nc(Cc2cccc(F)c2)no1
3%	COCC(=O)NC1CCC12CCN(C(=O)c1cccc(C#N)c1)CC2 (stereo unspecified)
6%	COCCN1C(=O)[C@H]2CN(Cc3scnc3C)C[C@H]2C1=O
13%	O=C(COc1ccccc1)N[C@@H]1CN(c2ncccn2)C[C@H]1CO
0%	O=C(COc1ccccc1)N1CCC2(CC1)CN(c1ncccn1)CC2CO (stereo unspecified)
3%	COCc1ccc2c(c1)c(OC(C)(C)C(=O)Nc1ccccn1)nn2Cc1cccc(OC)c1
0%	CC(=O)N1CCC([C@@H]2CN(C3CCN(C(C)=O)CC3)C[C@H]2CO)CC1
-18%[70.6 µM]	COc1ccc(C)cc1-c1cn(C)c(=O)n2cc(COc3ccc(Cl)cc3)nc12
-3%	CNc1ccc(C)cc1C(=O)NC(C(=O)O)c1c(C)n[nH]c1C (stereo unspecified)
10%[70.6 µM]	Cn1cnc2ccc(Nc3ccccc3)nc2c1=O
-2%	CCNC(=O)N1CCCCCNC(=O)[C@@H]2CCCC[C@@H]21
-3%[70.6 µM]	O=C(C1CCCN(c2nc3ncccc3o2)C1)N1CCOCC1 (stereo unspecified)
-15%	O=C(NCCCc1ccccc1)C1CCN(C(=O)c2ncn3c2COC(c2ccccc2)C3)CC1 (stereo unspecified)
0%[70.6 µM]	O=C(Cc1ccccc1)N1CCC12Cc1ccccc1NC2=O (stereo unspecified)
0%	COC[C@@H]1CN(S(=O)(=O)c2cc(F)ccc2C)C[C@H]1C(N)=O
2%	COCCC1(NS(C)(=O)=O)CCNCC1
-1%	Cc1cc(C)cc(NC(=O)C2CCN(C(=O)c3nnn4cc(C)[nH]c(=O)c34)CC2)c1
4%	Cc1ccc(C)c(C(=O)N2CCC(OC3CCN(C)CC3)CC2)c1
-12%	Cc1cc(C)cc(NC(=O)N2CCC(Oc3ncccc3C(=O)N3CCOCC3)C2)c1 (stereo unspecified)
5%[70.6 µM]	COc1ncccc1-c1cc(C2=CCOCC2)c2cncn2c1
-8%	Cc1nc(C)c(C(=O)N2CC(Oc3ccc(-c4nc(-c5ccccc5)no4)cc3)C2)s1
0%	COc1ccccc1CNC(=O)CCn1ccn2nc3c(c2c1=O)CCCC3
u	O=C(NC1CCCCCC1)c1csc(N2CCN(c3ccccc3)CC2)n1
6%	CCn1c(C2CCN(S(=O)(=O)c3ccc(OC)c(OC)c3)CC2)nn(C)c1=O
-6%[70.6 µM]	C=CCO[C@@H]1C[C@H]2C(=O)Nc3ccc(-c4ccc(F)cc4F)cc3C(=O)N2C1
-1%	COCCC(=O)N1CCCC1c1nc(C2CCOCC2)no1 (stereo unspecified)
-15%[70.6 µM]	COc1cccc(C(=O)N[C@H]2[C@H](O)[C@H](O)C[C@@H]2c2ccccc2)c1
12%	COC[C@@H]1[C@H](NC(=O)C2CCN(C(=O)c3ccncc3)CC2)[C@@H]2CCO[C@H]12
2%	CN1C(=O)CCC2(CNC(=O)c3n[nH]c(=O)c4ccccc34)CCC=C12 (stereo unspecified)
-6%	CS(=O)(=O)N1CCC(C2CCN(C(=O)c3cccc(C#N)c3)C2)CC1 (stereo unspecified)
2%[70.6 µM]	O=c1cc(N2CCOCC2)oc2c(-c3ccccc3)nccc12
-9%[70.6 µM]	COc1cc(CNC(=O)c2nc3nc(-c4ccccc4)c(Cl)cc3n2C)cc(OC)c1
2%[70.6 µM]	COc1ccccc1CNC[C@H]1O[C@@H]2C[C@@H](CC(=O)N3CCOCC3)O[C@@H]2[C@@H]1O

Some of these compounds in order of molecular weight, high to low:
hNpr1 antagonist	mol
-16%	COc1ccc(-c2cc(C[C@H]3CNCC[C@H]3CC(=O)NCc3ccc4c(c3)OCO4)no2)cc1
0%	O=C(COc1ccccc1)N1CCC2(CC1)CN(c1ncccn1)CC2CO (stereo unspecified)
-3%[70.6 µM]	N[C@H]1CCN2C(=O)c3cc(-c4ccccc4F)ccc3NC(=O)[C@H]12

Going on with the list:
hNpr1 antagonist	mol
-21%	Cc1csc(NC(=O)C2c3ccccc3C(=O)N(Cc3ccccc3)C23CCCC3)n1 (stereo unspecified)
5%	Cc1ncc(C(=O)NCc2cc3n(n2)CCCN(C2CCCCC2)C3)s1
0%[70.6 µM]	CCC(=O)Nc1ccc([C@H]2OCC(=O)N(Cc3ccc(F)cc3)[C@@H]2CO)cc1
-9%	Cc1ccc(C(=O)N2CCc3sc(C(=O)NCc4ccc(C)o4)cc3C2)cc1
3%[70.6 µM]	COc1ccc(-c2noc([C@@H]3Cc4nc[nH]c4CN3C(=O)CSCC(=O)O)n2)cc1
-22%	CCc1cc(=O)n(CC(=O)Nc2cc(OC)c(OC)c(OC)c2)c(N2CCOCC2)n1
2%[70.6 µM]	CC(=O)Nc1ccc2c(c1)nc1n2[C@@H](CNC2CCOCC2)COC1
-8%	O=C(Cn1c(=O)oc2ccccc21)N1CCC(c2noc(-c3ccncc3)n2)C1 (stereo unspecified)
-12%	COCCN1C(=O)c2ccccc2C(C(=O)Nc2nnc(C(C)C)s2)C12CCCCC2 (stereo unspecified)
-1%	COCCNC(=O)C1c2ccccc2C(=O)N(Cc2ccco2)C12CCCCC2 (stereo unspecified)
7%	COc1ccc(CCC(=O)Nc2ccc(-c3nnc4n3CCCC4)cc2)cc1
6%	C=CCNC(=O)N[C@H]1CCN(C(=O)CSC)[C@@H]1C(=O)N[C@H](Cc1c[nH]c2ccccc12)C(N)=O
-1%	NCCn1cc(C(=O)N2CCC[C@H]2c2nc(-c3ccccn3)no2)nn1
4%	Cc1cc(=O)n(CC(=O)Nc2ccc(C)c(C)c2)c(N2CCN(c3ccccc3)CC2)n1
2%	COCCOCC(=O)N1CCC(N2C(=O)C(OCC3CC3)C23CCOCC3)CC1 (stereo unspecified)
5%	CCNC(=O)c1cccnc1OC1CCN(C(=O)c2ccc(C)c(C)c2)C1 (stereo unspecified)
7%[70.6 µM]	O=C(N[C@H]1CCCNC1=O)C1=C[C@@H](NC(=O)c2cccnc2)[C@@H](O)[C@H](O)C1
-9%[70.6 µM]	Cc1ccc(S(=O)(=O)N2CC[C@H](c3nc4ccccc4[nH]3)C2)cc1
5%[70.6 µM]	COc1ccc(CN2C(=O)[C@@H]3C[C@@H](O)CN3C3(CN(C)C3)C2=O)cc1
-25%	Cc1cc(NC(=O)CN2C(=O)NC(c3ccc(Cl)cc3)C3=C2COC3=O)ccc1Br (stereo unspecified)
-2%	COc1ccc(C(=O)N2CCCN(C)c3ccccc32)c(C)c1
-2%[70.6 µM]	COCCN1CCN(C(=O)[C@@H]2Cc3cn(C)c4cccc(c34)[C@H](CC(C)C)N2)CC1
-2%	CCC(C)NC(=O)C(NC(=O)c1ccc(OC)cc1)C1CCN(C(=O)CC(C)C)CC1 (stereo unspecified)
0%	O=C(NCc1ccc2c(c1)OCO2)[C@@H]1C[C@H](c2ccc(F)cc2)N([S+](=O)([O-])C2CC2)C1
6%	O=C(Cc1cccs1)Nc1ccc(-c2nnc3n2CCCC3)cc1
-3%	CNC(=O)[C@@H]1CN(C(=O)c2ccc3ccccc3n2)C[C@H]1COC
1%[70.6 µM]	COCCNc1ncccc1-c1noc([C@@H]2CCCN2CC(C)(C)C)n1
6%&27%	COc1ccc(N2CC(C(=O)N3CCC(C(=O)NCc4ccc5c(c4)OCO5)C3)NC2=O)cc1 (stereo unspecified)
7%	O=C(NCc1nc(-c2cccc(F)c2)c(-c2ccccn2)[nH]1)[C@@H]1CCCN1
-6%	Cc1ncc2c(c1CNC(=O)c1cccc(OC(F)F)c1)CCNC2
-4%	Cc1cc(Cl)ccc1S(=O)(=O)N1CCN(C2CCN(CCC(C)C)C2=O)CC1 (stereo unspecified)
-13%	Cc1ccc(C(=O)NCc2nnc3c(-c4nc(C5CC5)no4)cccn23)cc1F
4%	COc1ccc2[nH]cc(CCNC(=O)C3Cn4cccc4C(=O)N3CC(C)C)c2c1 (stereo unspecified)
2%	COCCNC(=O)[C@@H]1C[C@@H](O)CN1C1CCN(C(=O)C2CCCCC2)CC1
-14%	COc1ccc(C(CC(=O)N(C)Cc2ncc(C)[nH]2)c2ccccc2)cc1 (stereo unspecified)
0%	CCOC(=O)c1cn(C2CN(S(=O)(=O)c3cccc(Cl)c3)C2)nn1
1%	Cc1cc(F)ccc1NC(=O)c1cc(-c2ccc[nH]2)n[nH]1
-4%[70.6 µM]	O=c1c2c(n(Cc3cccnc3)n1-c1ccccc1)CN(CC1CC1)CC2
4%	NC(=O)[C@@H]1C[C@H](Oc2cccnc2)CN1S(=O)(=O)Cc1ccccc1F

Assay outcomes (PubChem)
